HCMV UL50-53 inh: inhibitors of HCMV UL50-UL53 nuclear egress complex interaction; HTRF UL50-UL53 interaction, normalized percent inhibition; inhibition, % (concentration not given with the values); 190,000 compounds, 0.15% hits; AID 1918969;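 active = both replicates at 50% or more, plus weaker picks with an unusually low signal ratio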;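 also: stock transfer was 100 nL into about 20 µL; 0% = negative control wells and 100% = wells with untagged competitor protein; inactives centre near -12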
Sa growth 42C: inhibitors of Staphylococcus aureus growth at 42 °C; 170,000 compounds, 0.53% hits; relative growth, % (test concentration not listed); S. aureus RN4220 growth, OD600, 20 h; active compounds read low;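 active = growth at 42 °C up to 50% and 20 or more points under that at 30 °C, or under 10% at both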;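 also: 300 nL library stock went into each well; scaled to the means of positive and negative controls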
GIV Gai3 FP: blocks GIV peptide binding to rat Galpha-i3. 210,000 compounds, 0.42% hits. percent of control (FP), % (test concentration not listed). Galpha-i3/FITC-GIV peptide fluorescence polarization, 90 min; active compounds read low; scaled: aluminum fluoride 0%, vehicle 100%. P08753;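 active = replicate mean at 85% of control or lower, very high polarization wells dropped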;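 also: lower values mean more displacement of the GIV peptide from Galpha-i3; wells of about 15 µL received 100 nL stock; the first replicate is given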
Target sequence (P08753 whole entry, looked up): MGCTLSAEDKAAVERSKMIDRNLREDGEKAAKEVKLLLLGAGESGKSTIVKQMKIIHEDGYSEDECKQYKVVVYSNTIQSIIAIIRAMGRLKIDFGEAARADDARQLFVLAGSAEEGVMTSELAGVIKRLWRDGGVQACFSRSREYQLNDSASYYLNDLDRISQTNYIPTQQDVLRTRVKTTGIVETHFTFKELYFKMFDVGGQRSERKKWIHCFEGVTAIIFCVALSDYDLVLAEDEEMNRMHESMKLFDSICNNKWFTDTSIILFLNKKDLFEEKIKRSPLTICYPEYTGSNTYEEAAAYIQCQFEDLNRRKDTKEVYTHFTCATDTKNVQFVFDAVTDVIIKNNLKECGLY
Sa growth 42C second temp: second read-out of Sa growth 42C, no call of its own (marks repeat the call); relative growth, %; measured here: growth at 30 °C;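 optical density after 20 h as mean of two plates; 100% = untreated growth and lower means inhibition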
The depositor's hits bear a star; . = not tested or not shown; & = joins results of further samples.

1. CCN1CCN(CC(c2ccccc2)c2ccccc2)CC1
2. COc1ccc(-c2nn3c(=O)cc(CN4CCN(C(=O)COc5ccc(F)cc5)CC4)nc3s2)cc1
3. CCOc1ccc(CN2C(=O)c3ccccc3Sc3ccc(C(=O)N4CCC5(CC4)OCCO5)cc32)cc1
4. O=c1c2ccccc2nc(-c2ccccc2)n1-c1ccccc1
5. CCOc1cc(CNCCc2ccccc2)ccc1OC
Assay by compound	1	2	3	4	5
HCMV UL50-53 inh	-12	.	-19	-1	-16
Sa growth 42C	119	91	107	107	96
Sa growth 42C second temp	106	87	87	78	85
GIV Gai3 FP	103	104	102	.	93

6. c1cncc(C2CCCN2)c1 (centres undefined)
7. O=c1[nH]ncc(N2CCOCC2)c1Cl
8. O=C(CN1C(=O)CN=C(c2ccccc2)c2ccccc21)Nc1cccc(C(F)(F)F)c1
9. CC12CCC3C(CCC4CC(=O)CC43C)C1CCC2O (centres undefined)
10. Cc1ccc(S(=O)(=O)Nc2c(C(=O)NCc3ccco3)c3nc4ccccc4nc3n2Cc2ccco2)cc1
Assay by compound	6	7	8	9	10
HCMV UL50-53 inh	-79	-17	-20	-8	-26
Sa growth 42C	95	84	95	92	152
Sa growth 42C second temp	97	84	87	97	76
GIV Gai3 FP	.	103	102	102	.

11. CCCC[N+]1(C)[C@@H]2CC(OC(=O)[C@H](CO)c3ccccc3)C[C@H]1[C@@H]1O[C@@H]12 (some centres undefined)
12. OC1CC2CCC(C1)N2CCc1ccccc1 (centres undefined)
13. CN(C)C(=O)Oc1ccc(C2SCCS2)cc1
14. O=C(OCC1CCCN2CCCCC12)C1CCNCC1 (centres undefined)
15. N#CC1=C2SCC(O)(c3ccco3)N2C(=O)CC1c1ccccc1F (centres undefined)
Assay by compound	11	12	13	14	15
HCMV UL50-53 inh	-39	5	1	1	-72
Sa growth 42C	93	87	106	110	102
Sa growth 42C second temp	92	85	103	97	80
GIV Gai3 FP	103	98	100	.	107

16. CCOc1ccc2nc(N=Nc3c(O)[nH]c(=O)[nH]c3=O)sc2c1
17. Cc1ccc(C(=O)NC2CN3CCC2CC3)cc1NC(=O)c1ccco1 (centres undefined)
18. Cc1nc2c(o1)NC(N)=C(C#N)C21CCN(C)CC1
19. O=C(c1cc(-c2cccnc2)nc2ccccc12)N1CCC2(CC1)OCCO2
20. O=c1[nH]c2ccccc2c(=O)n1-c1ccc(Cl)c(Cl)c1
Assay by compound	16	17	18	19	20
HCMV UL50-53 inh	1	-10	-6	.	-48
Sa growth 42C	120	96	80	114	92
Sa growth 42C second temp	95	99	102	80	84
GIV Gai3 FP	.	.	101	99	101

21. Cc1cc(C(=O)CN2CCCC2)c(C)n1-c1ccc(F)cc1
22. CCOc1ccccc1CN1CCN(C)CC1
23. NC(N)=NCc1cccnc1
24. O=C(COc1ccccc1)N1CCN(CCc2ccccn2)CC1
25. Cc1nc2cc(CCl)ccc2s1
Assay by compound	21	22	23	24	25
HCMV UL50-53 inh	-28&7	8	-26	-6	-13
Sa growth 42C	111	97	88	.	85
Sa growth 42C second temp	99	112	90	.	67
GIV Gai3 FP	.	102	106	99	.

26. CCOC(=O)c1ccc(NC(=O)c2cccn(Cc3ccccc3F)c2=O)cc1
27. CN1CCN(Cc2coc3ccccc3c2=O)CC1
28. C1CCC(NCC2OCCCCO2)CC1
29. CCc1ccc(CN2CCN(Cc3cccc(OC)c3)CC2)cc1
30. c1ccc(C2CC2)c(OCC2=NCCN2)c1
Assay by compound	26	27	28	29	30
HCMV UL50-53 inh	.	7	-16	.	-37&-7&2&-37
Sa growth 42C	123	106	100	117	95
Sa growth 42C second temp	80	85	96	89	91
GIV Gai3 FP	104	.	102	101	101&107

31. CC1CCCCN1S(=O)(=O)c1ccc(CCN)cc1 (centres undefined)
32. COc1ccc2c(c1)[nH]c1c(C)nccc12
33. CC12CC[C@H]3[C@@H](CCC4(O)C[C@H](O)CCC34/C=N/Nc3ccccc3)C1(O)CCC2C1=CC(=O)OC1 (some centres undefined)
34. Oc1c(Cl)cc(Cl)cc1CN1CCN(c2cccc(Cl)c2)CC1
35. Cc1[nH]c2ccccc2c1/C=C/c1nc2ccccc2c(=O)n1-c1ccccc1
Assay by compound	31	32	33	34	35
HCMV UL50-53 inh	10	-40&-16&-16&-22	-21	-9	7
Sa growth 42C	86	83	98	115	.
Sa growth 42C second temp	95	91	85	105	.
GIV Gai3 FP	107	97&103	104	100	-70*

36. C1CCCN(C2CCNCC2)CC1
37. CC(Cc1ccccc1)NCc1ccco1 (centres undefined)
38. CCn1cc(C=C(C#N)C#N)c2ccccc21
39. CSc1nc2ccccc2c(=O)n1-c1cccnc1
40. CCC1(CCc2ccncc2)C(=O)NC(=O)NC1=O
Assay by compound	36	37	38	39	40
HCMV UL50-53 inh	-29	-18	-16	22	-14
Sa growth 42C	96	97	96	118	107
Sa growth 42C second temp	86	95	84	103	84
GIV Gai3 FP	101	102	98	100	105

2 consecutive records out of the list so far, for reference:
36. C1CCCN(C2CCNCC2)CC1
37. CC(Cc1ccccc1)NCc1ccco1 (centres undefined)
Assay by compound	36	37
HCMV UL50-53 inh	-29	-18
Sa growth 42C	96	97
Sa growth 42C second temp	86	95
GIV Gai3 FP	101	102

Next part.
41. N#CC(C#N)=Cc1sccc1C1OCCO1
42. CC(=O)Nc1ccc(Cc2ccc(NC(C)=O)cc2)cc1
43. S=C(S)N1CCCCC1c1cccnc1 (centres undefined)
44. CCC(=O)OC1(c2cccc(C)c2)CC(C)N(C)CC1C (centres undefined)
45. CN1CC=C(c2noc(CCC(=O)Nc3nc4ccccc4s3)n2)CC1
Assay by compound	41	42	43	44	45
HCMV UL50-53 inh	-12	7&-2	-6	-12	-40
Sa growth 42C	85	89	78	107	93
Sa growth 42C second temp	68	87	75	88	78
GIV Gai3 FP	104	101	.	.	103

46. COc1ccc(CCNCc2sccc2C)cc1
47. Oc1ccccc1CC1CC2CCN1CC2 (centres undefined)
48. O=C1NC(=O)C(=Cc2ccc(SCc3ccc(Cl)cc3)o2)C(=O)N1
49. CCCC1=C(C(=O)OCC)C2(C(=O)Nc3ccccc32)C(C(=O)OCC)=C(N)O1 (centres undefined)
50. CCOC(=O)Cc1ccc(NC(=O)N2Cc3ccccc3-n3cccc3C2c2ccc(CC)cc2)cc1 (centres undefined)
Assay by compound	46	47	48	49	50
HCMV UL50-53 inh	-12	-2	.	-19	-4
Sa growth 42C	88	82	110	.	.
Sa growth 42C second temp	88	91	91	.	.
GIV Gai3 FP	100	99	117	98	104

Eleven entries already listed, arranged by number of heavy atoms, largest number first:
50. CCOC(=O)Cc1ccc(NC(=O)N2Cc3ccccc3-n3cccc3C2c2ccc(CC)cc2)cc1 (centres undefined)
49. CCCC1=C(C(=O)OCC)C2(C(=O)Nc3ccccc32)C(C(=O)OCC)=C(N)O1 (centres undefined)
45. CN1CC=C(c2noc(CCC(=O)Nc3nc4ccccc4s3)n2)CC1
48. O=C1NC(=O)C(=Cc2ccc(SCc3ccc(Cl)cc3)o2)C(=O)N1
44. CCC(=O)OC1(c2cccc(C)c2)CC(C)N(C)CC1C (centres undefined)
40. CCC1(CCc2ccncc2)C(=O)NC(=O)NC1=O
46. COc1ccc(CCNCc2sccc2C)cc1
Assay by compound	50	49	45	48	44	40	46
HCMV UL50-53 inh	-4	-19	-40	.	-12	-14	-12
Sa growth 42C	.	.	93	110	107	107	88
Sa growth 42C second temp	.	.	78	91	88	84	88
GIV Gai3 FP	104	98	103	117	.	105	100

38. CCn1cc(C=C(C#N)C#N)c2ccccc21
47. Oc1ccccc1CC1CC2CCN1CC2 (centres undefined)
43. S=C(S)N1CCCCC1c1cccnc1 (centres undefined)
36. C1CCCN(C2CCNCC2)CC1
Assay by compound	38	47	43	36
HCMV UL50-53 inh	-16	-2	-6	-29
Sa growth 42C	96	82	78	96
Sa growth 42C second temp	84	91	75	86
GIV Gai3 FP	98	99	.	101

Following part
51. NC(CCP(=O)(O)O)C(=O)O (centres undefined)
52. CC1CC(=O)C2CCCCC2N1 (centres undefined)
53. C/C(=N\O)C(C)(C)NCCc1c[nH]c2ccccc12
54. CCOC(=O)c1ccc(NC(=O)c2sc3nc4c(cc3c2N)N2CCC4CC2)cc1
55. Cn1nnnc1SC1CCOC1=O (centres undefined)
Assay by compound	51	52	53	54	55
HCMV UL50-53 inh	-31	-24	-82	-30	3
Sa growth 42C	.	125	103	87	80
Sa growth 42C second temp	.	94	95	86	100
GIV Gai3 FP	108	101	103	99	104

56. N#CCCn1cc(C(=O)O)c(-c2ccccc2)n1
57. O=C(c1cc2ccccn2n1)N1CCC2(CC1)OCCO2
58. CCC1c2c(nc(C)[nH]c2=O)Oc2c1c(=O)oc1ccccc21 (centres undefined)
59. CC(=O)OC1CCC2C3CC[C@H]4C[C@@H]5C[C@@H]5[C@H](O)C4(C)C3CCC12C (some centres undefined)
60. O=C(NC1CC2CCC(C1)N2)c1ccccc1 (centres undefined)
Assay by compound	56	57	58	59	60
HCMV UL50-53 inh	-29	.	-85	-14	-3
Sa growth 42C	89	103	112	111	111
Sa growth 42C second temp	78	92	89	93	106
GIV Gai3 FP	.	109	107	103	104

61. CCOC(=O)c1nc2ccccc2c(=O)n1-c1ccc(Br)cc1
62. COc1ccc(-n2c(C)nc3ccccc3c2=O)cc1
63. O=c1c2ccccc2nc(CSc2ncnc3nc[nH]c23)n1-c1ccccc1
64. CCCCc1nc2ccccc2c(=O)n1-c1cccc(OC)c1
65. N#Cc1ccc(Cn2cc(C(=O)c3ccccc3)c3ccccc32)cc1
Assay by compound	61	62	63	64	65
HCMV UL50-53 inh	-34	.	-12	2	-9
Sa growth 42C	111	103	.	103	105
Sa growth 42C second temp	83	92	.	101	94
GIV Gai3 FP	.	102	103	103	98

66. CCOc1ccccc1CN(CCc1ccc2c(c1)OCO2)Cc1ccc(CC)cc1
67. CNCCCc1ccccc1
68. CC(=O)N1N=C2C3CCN(CC3)[C@@H]2[C@@H]1c1cc(C)cc(C)c1
69. CCCCn1c(C)c(C(=O)OCC)c2cc(OC)ccc21
70. C=C[C@H]1CN2CC[C@H]1C[C@@H]2[C@H](O)c1ccnc2ccccc12
Assay by compound	66	67	68	69	70
HCMV UL50-53 inh	24	-5	12	-10	-22
Sa growth 42C	92	119	.	80	92
Sa growth 42C second temp	91	82	.	106	89
GIV Gai3 FP	108	99	109	103	.

71. CN1C(=O)C(=Cc2cn(Cc3ccccc3C#N)c3ccccc23)C(=O)N(C)C1=O
72. O=c1cccc2n1CC1CC2CN(CC(O)c2ccc3[nH]ccc3c2)C1 (centres undefined)
73. CC(C)(C)c1cc2c(c(C(C)(C)C)c1)Oc1cc(C#N)c(C#N)cc1O2
74. CC(=O)OC1CCC2(C)C3CCC4(C)C(OC(C)=O)CCC4C3CC(O)C2(O)C1 (centres undefined)
75. Clc1cccc(Cl)c1NC1=NCCS1
Assay by compound	71	72	73	74	75
HCMV UL50-53 inh	-11	-23	.	-8	-49
Sa growth 42C	.	94	80	91	94
Sa growth 42C second temp	.	83	101	84	91
GIV Gai3 FP	102	117	95	102	102

76. CC(=O)Nc1cccc(OC(=O)N(C)C)c1
77. CCOc1ccc(CN(CCc2ccc3c(c2)OCO3)Cc2cccc(Br)c2)cc1
78. CCN1CCc2nc3ccccc3c(C(=O)O)c2C1
79. CCOC(=O)C1(c2ccccc2)CCN(CCOc2ccccc2)CC1
80. C[C@]1(C(=O)O)CCC[C@]2(C)c3cc(O)ccc3CC[C@@H]12
Assay by compound	76	77	78	79	80
HCMV UL50-53 inh	-12	-57	-23	2	9
Sa growth 42C	109	83	114	104	163
Sa growth 42C second temp	100	83	85	95	106
GIV Gai3 FP	103	106	.	.	.

81. COc1cc(C(=O)OC2CC3CCC(C2)N3)ccc1O (centres undefined)
82. O=C(CC(=O)N1CC2CC(C1)c1cccc(=O)n1C2)c1ccccc1 (centres undefined)
83. CCOC(=O)C1C2c3ccccc3O[C@]1(C)N=c1s/c(=C/c3ccc(OC)cc3)c(=O)n12 (some centres undefined)
84. CN(C)C(=O)C(CCN1CCC(O)(c2ccccc2)CC1)(c1ccccc1)c1ccccc1
85. Cc1cccc(C)c1OCC(=O)Nc1ccc(Cl)cc1C(=O)c1ccccc1
Assay by compound	81	82	83	84	85
HCMV UL50-53 inh	-21	-20	-11	1	-59
Sa growth 42C	102	83	96	70	87
Sa growth 42C second temp	85	87	88	46	79
GIV Gai3 FP	.	100	.	.	106

86. COc1ccc(OC)c(NC(=O)Cn2cc(C(=O)c3ccccc3)c3ccccc32)c1
87. CCCSc1nc(O)c(CC)c(=O)n1C(C)CC (centres undefined)
88. CCOC(=O)c1nc2ccccc2c(=O)n1-c1ccc(C)cc1C
89. CC(C)=CCOc1c2occc2cc2ccc(=O)oc12
90. COc1ccc(Cl)cc1NC1=NCC(C)S1 (centres undefined)
Assay by compound	86	87	88	89	90
HCMV UL50-53 inh	-27	0	-38	-30	.
Sa growth 42C	87	164	88	.	98
Sa growth 42C second temp	83	107	89	.	90
GIV Gai3 FP	105	99	.	102	102

91. O=C(COc1ccccc1[N+](=O)[O-])N1CCN(CCc2ccccn2)CC1
92. CN(C)C(=S)SCC#N
93. N#CC1(N2CCCCC2)CCCCC1
94. COc1cc(/C=C2\C(=O)NC(=O)N(c3ccc(Br)cc3)C2=O)ccc1O
95. O=C1CN=C(c2ccccc2)c2cc(Cl)ccc2N1Cc1ccc(Cl)cc1
96. CCOC(=O)C1(c2ccccc2)CCN(CCC(=O)Nc2ccc(C(=O)OC)cc2)CC1
Assay by compound	91	92	93	94	95	96
HCMV UL50-53 inh	-32	-2	-33	-16	-24	-11
Sa growth 42C	97	91	120	.	115	98
Sa growth 42C second temp	85	86	83	.	89	83
GIV Gai3 FP	92	.	.	142	100	.

The list is partial (hit frequency here may not be typical).
